LMNA splice mod – LMNA splicing modulation; Potency, µM (highest dose often 46.1 µM), inactives show top-dose ratio change, negative = inhibition, usual class: inhibitors; 200,000 tested, 0.01% active; HeLa LMNA splicing GFP/RFP minigene ratio, 48 h; active = well fitted inhibition curve with a large enough effect in the signal ratio, with a control signal flat, not every such curve was filed as active; inconclusive = small, poorly fitted or top-dose-only effect, or effect the other way, or a change in a side signal; the % refers to the signal ratio; also: % is scaled to controls: 0 for no effect and ±100 for the full control effect
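S3 HeLa stable clones carrying a lamin A-EGFP splicing minigene plus DsRed2 were seeded at 600 cells/well in Opti-MEM with 2% FBS, pin-dosed and incubated 48 h at 37°C. Acumen cytometry (488 nm) gave the GFP/RFP total-intensity ratio.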
KinaseGlo FLuc – counter-screen: inhibitors of Kinase-Glo firefly luciferase. AID 1379. 200,000 tested, 0.28% active. Potency, µM (doses to about 38.3 µM), for the others: at the top dose activity change, negative = inhibition, most hits filed as inhibitors. Kinase-Glo luciferase, ATP luminescence, 8 min; also: % is scaled to controls: 0 for no effect and ±100 for the full control effect; nearly all actives have a fitted effect of over 60% in size
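Substrate mix (final 50 mM imidazole pH 7.2, 50 mM KCl, 7 mM MgCl2, 10 uM ATP, 0.01% Tween 20, 0.05% BSA) plus pin-tool compound, then Kinase-Glo detection mix; 8 min ambient, luminescence read.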
ALDH1A1 inh – ALDH1A1 (human) enzyme inhibition; P00352; Purified ALDH1A1, NADH fluorescence, propionaldehyde substrate; Potency, µM (titrated, usually from 75.3 µM), for inactives: top-dose activity, negative = inhibition, actives largely listed as inhibitors; 220,000 tested, 7.3% active; AID 1030; active = well fitted inhibition curve with a large enough effect, not every such curve was filed as active; inconclusive = small, poorly fitted or top-dose-only effect, or another doubt; inactive = no such curve, though single readings can be large or run the other way;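 also: plate controls were no enzyme wells and a reference inhibitor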
Target sequence (P00352 whole entry, looked up): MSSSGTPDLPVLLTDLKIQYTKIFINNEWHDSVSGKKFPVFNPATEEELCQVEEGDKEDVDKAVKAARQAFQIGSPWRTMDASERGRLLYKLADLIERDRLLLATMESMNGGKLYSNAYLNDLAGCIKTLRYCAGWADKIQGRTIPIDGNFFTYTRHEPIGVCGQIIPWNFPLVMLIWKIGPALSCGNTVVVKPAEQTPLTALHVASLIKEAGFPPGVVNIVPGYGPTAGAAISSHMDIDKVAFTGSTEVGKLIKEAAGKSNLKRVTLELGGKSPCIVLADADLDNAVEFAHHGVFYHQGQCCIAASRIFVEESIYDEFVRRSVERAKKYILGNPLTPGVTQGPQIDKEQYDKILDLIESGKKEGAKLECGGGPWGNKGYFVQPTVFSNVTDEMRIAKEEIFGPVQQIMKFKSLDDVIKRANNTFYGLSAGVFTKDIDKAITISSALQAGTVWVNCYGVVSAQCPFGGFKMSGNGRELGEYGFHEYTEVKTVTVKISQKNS
SMN2 splice up – SMN2 splice variant enhancement | HEK293 SMN2-luciferase splicing reporter, luminescence, 30-36 h | Potency, µM (series often up to 46.1 µM), for inactives: at the top dose activity change, positive = activation, actives largely listed as activators | 210,000 tested, 2.8% active | AID 1458; also: % of control where 0% means no effect; nearly all actives have a fitted effect of over 55% in size
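HEK293 cells carry an SMN2 […]–luciferase reporter in which exon 7 inclusion puts luciferase in frame. Cells were plated 10-12 h before compound addition, then incubated 30-36 h at 37C. ONE-Glo luminescence was read; sodium butyrate at 4.5 mM final served as control.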
RECQ1 helicase – RECQ1 (human) helicase inhibition. P46063. RECQ1 DNA unwinding, red fluorescence kinetic read. Potency, µM (titrated, usually from 57.3 µM), inactives show top-dose activity, negative = inhibition, actives largely listed as inhibitors. 240,000 tested, 0.54% active;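 also: plate controls were vehicle for no effect and no enzyme for full effect; nearly all actives have a fitted effect of over 30% in size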
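50 nM RECQ1T1 preincubated 15 min with compound in Tris pH 8.0 buffer with MgCl2, DTT, Tween-20 and 2.5 ug/ml poly(dI-dC); started with 200 nM TAMRA/BHQ-2 forked duplex and 2 mM ATP. Unwinding read as fluorescence (525/598 nm), two reads 2 h apart.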
JMJD2E inh – JMJD2E (human) inhibition; B2RXH2; JMJD2E catalytic domain, FDH-coupled NADH fluorescence (FDH is formaldehyde dehydrogenase); Potency, µM (highest dose often 57.1 µM), for inactives: at the top dose activity change, negative = inhibition, most hits filed as inhibitors; 230,000 tested, 1.6% active; AID 2147; active = well fitted inhibition curve with a large enough effect, not every such curve was filed as active; inconclusive = small, poorly fitted or top-dose-only effect, or another doubt; inactive = no such curve, though single readings can be large or run the other way;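 also: 0% = wells with enzyme and -100% = buffer wells without enzyme; nearly all actives have a fitted effect of over 50% in size; many of its hits are not listed in these tables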
Tau fibril ThT – inhibitors of human tau fibril formation, thioflavin T binding; P10636; recombinant tau K18 P301L (four-repeat tau fragment), heparin-induced fibrillization, ThT fluorescence; Potency, µM (doses to about 57.4 µM), inactives show at the highest dose activity, negative = inhibition, usual class: inhibitors; 270,000 tested, 2.1% active; AID 1460; also: % is scaled to controls: 0 for no effect and ±100 for the full control effect; nearly all actives have a fitted effect of over 55% in size
Target sequence (P10636 561-689 P618L limits assumed): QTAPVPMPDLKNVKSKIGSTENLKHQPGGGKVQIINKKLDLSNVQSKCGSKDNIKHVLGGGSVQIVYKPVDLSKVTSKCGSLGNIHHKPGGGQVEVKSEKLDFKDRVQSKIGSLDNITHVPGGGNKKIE
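Heparin-induced (20 uM) aggregation of recombinant human K18 P301L tau, 15 uM unlabeled with 0.24 uM labeled, pH 7 acetate buffer, 6 hr at 37 C with compound. Fibrils quantified by 30 uM ThT fluorescence after 1 hr ambient incubation.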
Numbers without * were called inactive; i = inactive; ? = inconclusive; nt = no result given; [ ] = remark or other dose. Unless noted, calls follow the shape of the dose curve; as a rule, active = well fitted curve in the direction sought with a large enough effect; inconclusive = small, poorly fitted or top-dose-only effect, or another doubt; inactive = no such curve, though single readings can be large; an effect the other way counts as inactive or inconclusive. Potency is read from the fitted curve at half-maximal effect.

1: COc1ccc([N+](=O)[O-])cc1NC(=O)COC(=O)c1ccccn1
2: COc1ccc(-c2nc(-c3ccccn3)no2)cc1
3: CCNC(=S)N1CCN(C(c2ccccc2)c2ccccc2)CC1
4: O=C(O)CCCNC(=O)/C=C/c1ccco1
5: O=C(/C=C/c1ccccc1Cl)NCc1ccco1

assay / compound | 1 | 2 | 3 | 4 | 5
LMNA splice mod | nt | nt | -9% | nt | 7%
KinaseGlo FLuc | 4% | 0.89µM* | 2% | nt | -5%
ALDH1A1 inh | ? | 11% | 3.2µM* | 22µM* | ?
SMN2 splice up | 1% | nt | -14% | nt | 24%
RECQ1 helicase | i | -9% | -7% | i | 9%
JMJD2E inh | -10% | -1% | -1% | ? | 3%
Tau fibril ThT | -5% | 13% | -17% | ? | -18%

6: CC(C)(C)OC(=O)NC(Cc1ccccc1)C(=O)O (stereo not given)
7: O=[N+]([O-])c1ccc(/C=N/n2c(COc3ccccc3)n[nH]c2=S)cc1
8: O=C(O)Cc1cccc2ccccc12
9: CCS(=O)(=O)c1ccc2c(c1)NC(=O)C(CCO)O2 (stereo not given)
10: Cc1ccccc1NC(=O)C1CC(Cl)=CCC1C(=O)O (stereo not given)

assay / compound | 6 | 7 | 8 | 9 | 10
LMNA splice mod | nt | 4% | ? | nt | 11%
KinaseGlo FLuc | nt | -1% | nt | -1% | 4%
ALDH1A1 inh | nt | 28µM* | -2% | -5% | 5%
SMN2 splice up | nt | -12% | -3% | nt | 1%
RECQ1 helicase | -5% | -15% | 13% | 2% | -3%
JMJD2E inh | 4% | -13% | nt | 6% | 5%
Tau fibril ThT | -4% | ? | nt | 0% | -4%

Next part.
Codes – A = LMNA splice mod; B = KinaseGlo FLuc; C = ALDH1A1 inh; D = SMN2 splice up; E = RECQ1 helicase; F = JMJD2E inh; G = Tau fibril ThT
11	COC(=O)C1C(O)=C(C=NCC(C)N=CC2=C(O)C(C(=O)OC)C(C)(C)CC2=O)C(=O)CC1(C)C (stereo not given)
  A: 6% | B: 1% | C: -1% | D: -6% | E: i | F: -4% | G: -3%

12	O=C(COC(=O)/C=C/c1ccccc1Cl)NCc1ccco1
  A: 0%[46 µM] | B: 2% | C: -10% | D: -3% | E: -14% | F: -5% | G: -8%

13	COC(=O)/C=C1\SC(=Nc2ccccc2)NC1=O
  A: -7% | B: 0% | C: 11% | D: 13% | E: -10% | F: -5% | G: -17%

14	Cc1ccc(-c2cc(C(=O)Nc3cc(C)on3)no2)cc1
  A: ? | B: -3% | C: -2% | D: nt | E: 22% | F: 1% | G: 2%

15	CCOC(=O)CSc1nc(C)c2cccc(C)c2n1
  A: nt | B: nt | C: -9% | D: nt | E: 3% | F: ? | G: -17%

16	Cc1cc(NC(=O)c2cc(C(C)C)on2)no1
  A: -2% | B: -7% | C: 17% | D: ? | E: 6% | F: 6% | G: 9%

17	CCOc1cccc2cc(-c3nc4ccc(C(=O)O)cc4[nH]3)c(=O)oc12
  A: ? | B: nt | C: nt | D: nt | E: nt | F: nt | G: ?

12 of the compounds above, as a markdown table.
| item | SMILES | LMNA splice mod | KinaseGlo FLuc | ALDH1A1 inh | SMN2 splice up | RECQ1 helicase | JMJD2E inh | Tau fibril ThT |
| --- | --- | --- | --- | --- | --- | --- | --- | --- |
| 3 | CCNC(=S)N1CCN(C(c2ccccc2)c2ccccc2)CC1 | -9% | 2% | 3.2µM* | -14% | -7% | -1% | -17% |
| 4 | O=C(O)CCCNC(=O)/C=C/c1ccco1 | nt | nt | 22µM* | nt | i | ? | ? |
| 5 | O=C(/C=C/c1ccccc1Cl)NCc1ccco1 | 7% | -5% | ? | 24% | 9% | 3% | -18% |
| 6 | CC(C)(C)OC(=O)NC(Cc1ccccc1)C(=O)O (stereo not given) | nt | nt | nt | nt | -5% | 4% | -4% |
| 7 | O=[N+]([O-])c1ccc(/C=N/n2c(COc3ccccc3)n[nH]c2=S)cc1 | 4% | -1% | 28µM* | -12% | -15% | -13% | ? |
| 8 | O=C(O)Cc1cccc2ccccc12 | ? | nt | -2% | -3% | 13% | nt | nt |
| 9 | CCS(=O)(=O)c1ccc2c(c1)NC(=O)C(CCO)O2 (stereo not given) | nt | -1% | -5% | nt | 2% | 6% | 0% |
| 10 | Cc1ccccc1NC(=O)C1CC(Cl)=CCC1C(=O)O (stereo not given) | 11% | 4% | 5% | 1% | -3% | 5% | -4% |
| 11 | COC(=O)C1C(O)=C(C=NCC(C)N=CC2=C(O)C(C(=O)OC)C(C)(C)CC2=O)C(=O)CC1(C)C (stereo not given) | 6% | 1% | -1% | -6% | i | -4% | -3% |
| 12 | O=C(COC(=O)/C=C/c1ccccc1Cl)NCc1ccco1 | 0%[46 µM] | 2% | -10% | -3% | -14% | -5% | -8% |
| 13 | COC(=O)/C=C1\SC(=Nc2ccccc2)NC1=O | -7% | 0% | 11% | 13% | -10% | -5% | -17% |
| 14 | Cc1ccc(-c2cc(C(=O)Nc3cc(C)on3)no2)cc1 | ? | -3% | -2% | nt | 22% | 1% | 2% |

Screening data deposited in PubChem by National Center for Advancing Translational Sciences (NCATS).

This is a subset, so the mix of outcomes need not match the whole.
